miR-21 reporter – miR-21 reporter, rising signal | HeLa miR-21 FLuc reporter, luciferase, 48 h | Potency, µM (doses to about 38.3 µM), inactives show at the highest dose reporter change, positive = more light | 340,000 tested, under 10 active; active = well fitted rising curve with a large enough effect; inconclusive = small, poorly fitted or top-dose-only effect; inactive = no such curve, though single readings can be large or run the other way;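 further: % of control where 0% means no effect; miR-21 action dims this reporter so a rising signal means less miR-21 action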
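Using DMEM plus 10% FBS, HeLa miR-21-FLuc cells are incubated with test compounds (final up to about 40uM) for 48 hours; firefly luciferase signal is then imaged following reagent-mediated lysis.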
Rango release inh – prevents RanGTP from dissociating the Rango-importin beta complex. O95149+P62826. Biochemical FRET Rango-importin beta, RanGTP-induced dissociation. Potency, µM (highest dose often 46.1 µM), for the others: top-dose activity change, negative = inhibition. 340,000 tested, 0.071% active; active means falling FRET ratio curve, often poorly fitted, with flat reads before Ran was added; inconclusive means other falling curves, or compound fluorescence or quenching; inactive means flat or rising ratio curve;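 further: potency means the concentration at half of the fitted maximal effect; % of control where 0% means no effect; nearly all actives have a fitted effect of over 45% in size; -100% = wells without RanGTP and RCC1; the record marks most hits as doubtful in a second field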
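Compounds sat 5 min at room temperature with 0.1 uM Rango biosensor plus 0.25 uM importin beta, then FRET pre-read. RanGTP-RCC1 (0.6 uM Ran, 2mM GTP, 0.2 uM RCC1) added for 45 min, and the CFP/YFP post-read measured blocked complex dissociation.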
Rango complex inh – inhibitors of Rango-importin beta complex formation | Q14974 | Rango CFP/YFP FRET sensor + importin beta, 45 min | Potency, µM (series often up to 92.2 µM), inactives show at the highest dose inhibition of complex formation | 340,000 tested, 0.031% active | AID 540263; active = rising FRET ratio curve, often small or poorly fitted; inconclusive = mostly compound fluorescence or quenching in the first reads; inactive = flat curves in all reads;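 further: potency means the concentration at half of the fitted maximal effect; 0% = DMSO wells and 100% = buffer wells lacking importin beta; nearly all actives have a fitted effect of over 15% in size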
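FRET biosensor Rango (snurportin 1 IBB between N-terminal EYFP and C-terminal Cerulean), 50 nM in PBS/1 mM DTT/0.02% Tween-20/0.1% BSA, preincubated 5 min RT with compound; 0.125 microM importin beta added, 45 min RT, CFP/YFP FRET ratio read.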
GLA inh pH 4.5 – inhibitors of human alpha-galactosidase A at pH 4.5; 230,000 tested, under 10 active; activity change, negative = inhibition, % at 105 µM; P06280; purified enzyme, 4-MU-alpha-Gal fluorescence, pH 4.5; inconclusive = small, poorly fitted or top-dose-only inhibition, or a rising curve; inactive = flat fitted curve, though single readings scatter; no compound was filed as active;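 further: 0% = full activity with enzyme and -100% = basal without enzyme; dose as in the result columns while the protocol names 77 µM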
Target sequence (P06280 whole entry, looked up): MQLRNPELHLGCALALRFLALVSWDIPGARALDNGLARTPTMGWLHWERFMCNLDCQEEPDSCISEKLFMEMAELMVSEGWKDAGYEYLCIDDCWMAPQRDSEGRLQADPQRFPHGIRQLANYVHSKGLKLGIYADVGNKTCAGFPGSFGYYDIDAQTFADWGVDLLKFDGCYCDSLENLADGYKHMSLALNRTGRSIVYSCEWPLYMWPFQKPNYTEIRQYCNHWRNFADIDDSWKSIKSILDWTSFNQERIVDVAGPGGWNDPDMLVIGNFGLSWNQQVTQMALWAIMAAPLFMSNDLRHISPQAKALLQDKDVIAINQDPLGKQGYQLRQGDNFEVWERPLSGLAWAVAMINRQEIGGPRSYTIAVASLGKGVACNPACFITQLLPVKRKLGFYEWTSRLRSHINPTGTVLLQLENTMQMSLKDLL
* hit, by the source's call; ? = inconclusive; · = no result given; & = joins results of further samples. A portion of the library (hit frequency here may not be typical).

SMILES	miR-21 reporter	Rango release inh	Rango complex inh	GLA inh pH 4.5
COc1ccccc1NC(=O)C(C)OC(=O)c1ccc(-n2cnnn2)cc1 (stereo unspecified)	·	0%	0.2%	·
O=C(Cn1c2ccc(F)cc2c2nc3n(c(=O)c21)CCS3)Nc1ccc(Cl)cc1F	0%	7%	0.7%	-3
CCOCCN(C(=O)c1ccccc1Cl)c1cccc(C)c1C	9%	-14%	-1.4%	3
COc1ccc(-c2cc(C(=O)N3CCN(c4ccccc4)CC3)no2)cc1OC	1%	-5%	-0.3%	-2
O=C(c1ccccc1F)N1CCN(C(=O)C(c2ccccc2)c2ccccc2)CC1	-1%	-2%	-3.5%	·
CSc1ccccc1NC(=O)Cn1nc([N+](=O)[O-])c(Cl)c1C	4%	-2%	-0.6%	-2
COc1cc(/C=N/NC(=O)c2cc[n+]([O-])cc2)cc(OC)c1OC	-1%	6%	?	·
Cc1cc(C)cc(N(C(=O)CCC(=O)Nc2cc(C)on2)C(C(=O)NC2CCCC2)c2ccco2)c1 (stereo unspecified)	2%	-2%	-0.2%	-14
O=C1/C(=C/c2ccccc2)SC(=S)N1N1C(=O)C2CC2C1=O (stereo unspecified)	0%	0%	-4.6%	0
CCC(=O)NNC(=O)c1c(O)c2ccccc2[nH]c1=O	-2%	-16%	-1.6%	-6
NNc1nc(-c2ccccc2)nc(-c2ccccc2)c1Br	·	8%	0.2%	·
CCCn1c(N2CCN(C(=O)Nc3ccc(Cl)cc3)CC2)nc2ccccc21	17%	-2%	-4.8%	-3
CCc1ccc(C2C(C#N)=C(N)N(N(C)C)C3=C2C(=O)CCC3)cc1 (stereo unspecified)	-11%	-10%	-0.4%	·
O=C(CSc1nc2sc3c(c2c(=O)[nH]1)CCC3)NCCO	1%	1%	4.5%	4
CCN1C(=O)c2n[nH]c(C(=O)OC)c2C1=O	-8%	?	-0.6%	7
Cc1c(/C=N\NC(=O)c2c[nH]c3ccccc23)cnn1C	-47%	6%	-0.9%	-1
COC(=O)c1[nH]c2ccccc2c1CN1CCOCC1	0%	-7%	-3.5%	·
CCOc1cc(/C=C2\C(=O)N(CCC#N)N=C2C)ccc1OCC(N)=O	-3%	2%	0.2%	-1
Cc1ccc(Sc2nc([N+](=O)[O-])nn2C)cc1	-4%	-3%	-0.4%	1
COc1ccc2sc(-c3ccccc3OC)c(-c3ccc(OC)c(F)c3)c2c1	·	3%	-3.6%	·

One compound at a time (already shown).
`COc1ccc(-c2cc(C(=O)N3CCN(c4ccccc4)CC3)no2)cc1OC` across the screens: miR-21 reporter: 1%; Rango release inh: -5%; Rango complex inh: -0.3%; GLA inh pH 4.5: -2
`Cc1c(/C=N\NC(=O)c2c[nH]c3ccccc23)cnn1C` across the screens: miR-21 reporter: -47%; Rango release inh: 6%; Rango complex inh: -0.9%; GLA inh pH 4.5: -1

Of the compounds above, these have an aryl methoxy group:
SMILES	miR-21 reporter	Rango release inh	Rango complex inh	GLA inh pH 4.5
COc1ccccc1NC(=O)C(C)OC(=O)c1ccc(-n2cnnn2)cc1 (stereo unspecified)	·	0%	0.2%	·
COc1ccc(-c2cc(C(=O)N3CCN(c4ccccc4)CC3)no2)cc1OC	1%	-5%	-0.3%	-2
COc1cc(/C=N/NC(=O)c2cc[n+]([O-])cc2)cc(OC)c1OC	-1%	6%	?	·
COc1ccc2sc(-c3ccccc3OC)c(-c3ccc(OC)c(F)c3)c2c1	·	3%	-3.6%	·

(list continues)
SMILES	miR-21 reporter	Rango release inh	Rango complex inh	GLA inh pH 4.5
CCN(CC)CCOCCOc1ccc(Cl)c2ccccc12	8%	65%	-0.1%	4
COc1ccc(OC)c(NC(=O)COC(=O)c2nc(Cl)ccc2Cl)c1	1%	2%	1.8%	0
Cc1cccc(NC(=O)CNC(=O)CN2C(=O)NC3(CCCc4ccccc43)C2=O)c1C (stereo unspecified)	·	28%	-4.5%	·
O=C(CCNS(=O)(=O)c1ccccc1)OCc1nc2ccsc2c(=O)[nH]1	·	-4%	0.1%	·
COc1ccc(C(=O)N2CCC(CCC(=O)Nc3cccc(C)c3)CC2)cc1	-18%	0%	-8.0%	·
Cc1cc(NC(=O)CCN2CCN(CCO)CC2)ccc1Br	0%	-4%	-2.5%	·
O=C(CCCSc1nnc(SCCCC(=O)c2ccc(F)cc2)s1)c1ccc(F)cc1	0%	1%	-2.1%	1
CCCCCOC(=O)Nc1ccc(S(=O)(=O)Nc2cccc([N+](=O)[O-])c2)cc1	1%	6%	-3.4%	-10
CC1CCCCC12NC(=O)N(CC(=O)Nc1ccc(N3CCCCC3)cc1)C2=O (stereo unspecified)	·	-2%	0.5%	·
O=C(COC(=O)C1C2CC3OC(=O)C1C3C2)Nc1ccc(Cl)cc1 (stereo unspecified)	-1%	-8%	-2.6%	·
CCCc1ccc(OCc2nc(-c3ccc(NC(=O)c4ccco4)cc3)no2)cc1	-43%	-2%	-4.1%	-3
CC1CCc2c(C(=O)Nc3nccs3)csc2C1 (stereo unspecified)	-51%	3%	0.4%	-5
Cc1ccc(N/N=C/c2ccc(N3CCOCC3)cc2)cc1C	-53%	-11%	-2.8%	0
CCCCNc1nc2ccccc2nc1NS(=O)(=O)c1cccs1	-2%	-2%	-4.0%	6
Cn1cc([N+](=O)[O-])c(C(=O)NCc2cc3cc(Cl)ccc3[nH]2)n1	1%	-1%	4.6%	-2
CCOc1ccccc1/C=C(\C(=O)O)c1ccc(S(=O)(=O)N2CCCCC2)s1	·	-7%	-0.2%	·
Cc1cc(C(=O)NN)c(C)o1	-46%	11%	2.7%	1
COc1ccc(C=O)cc1COc1ccc(Cl)cc1[N+](=O)[O-]	-5%	10%	0.8%	7
Cc1ccc(OC2CCN(C(=O)C3CCC(=O)N(C4CC4)C3)CC2)cc1 (stereo unspecified)	7%	0%	3.0%	·
CCOc1ccc(S(=O)(=O)NCCCn2ccnc2)cc1	4%	12%	0.5%	·

Five entries already listed, sorted by their value in Rango complex inh, rising.
SMILES	miR-21 reporter	Rango release inh	Rango complex inh	GLA inh pH 4.5
CCCc1ccc(OCc2nc(-c3ccc(NC(=O)c4ccco4)cc3)no2)cc1	-43%	-2%	-4.1%	-3
COC(=O)c1[nH]c2ccccc2c1CN1CCOCC1	0%	-7%	-3.5%	·
CCC(=O)NNC(=O)c1c(O)c2ccccc2[nH]c1=O	-2%	-16%	-1.6%	-6
CCOc1cc(/C=C2\C(=O)N(CCC#N)N=C2C)ccc1OCC(N)=O	-3%	2%	0.2%	-1
CC1CCCCC12NC(=O)N(CC(=O)Nc1ccc(N3CCCCC3)cc1)C2=O (stereo unspecified)	·	-2%	0.5%	·

More structures follow.
SMILES	miR-21 reporter	Rango release inh	Rango complex inh	GLA inh pH 4.5
CCn1nnnc1SCC(=O)Nc1ccc(OC)cc1	-25%	7%	-0.8%	-22
NC(=O)Cn1c(=O)n(CCCC(=O)NC2CCN(Cc3ccccc3)CC2)c(=O)c2ccccc21	-2%	1%	?	5
Cc1noc(C)c1NC(=O)Nc1cccc2c1O[C@@H](CN(C)C(=O)Nc1ccc3c(c1)OCO3)[C@@H](C)CN([C@H](C)CO)C2=O	·	-1%	0.2%	·
Clc1ccccc1-c1ncc2ccccn12	9%	-7%	2.3%	4
Cc1ccc(CNC(=O)c2cn(C)c3ccc(S(=O)(=O)N4CCOCC4)cc3c2=O)cc1	0%&-3%	16%	-2.1%	·
Cc1ccc(S(=O)(=O)N2CCCCC2)cc1C(=O)Nc1ccc(S(=O)(=O)Nc2ncccn2)cc1	-5%	6%	-0.3%	-4
O=C(NNC(=O)c1ccc(F)c(S(=O)(=O)N2CCOCC2)c1)c1ccc([N+](=O)[O-])cc1	·	-2%	-1.1%	·
NC(=O)C[C@@H]1NC(=O)c2cc([N+](=O)[O-])cc(F)c2NCCCC[C@@H](C(N)=O)NC(=O)[C@H](CO)NC1=O	-1%	·	·	0
NS(=O)(=O)c1ccc(CCNC(=O)c2ccc(Cn3c(=O)[nH]c4ccccc4c3=O)cc2)cc1	-3%	-13%	-0.5%	-4
CCN(CC)S(=O)(=O)c1cc(NC(=O)C2CSC3(C)CCC(=O)N23)ccc1C (stereo unspecified)	·	-1%	-0.2%	·
CC(=O)c1c(C)[nH]c(C(=O)OCc2nnc(-c3ccccc3)o2)c1C	7%	-20%	6.1%	2
O=C(CSc1nnnn1-c1ccc2c(c1)OCCO2)c1cccc2c1OCCO2	-26%	-8%	2.3%	6
COC(=O)CSc1nnc(CNC(=O)c2ccco2)n1-c1ccc(F)cc1	-1%	-10%	?	2
Cc1ccccc1-n1nnnc1SC(C)C(=O)Nc1ccc(N2CCN(C)CC2)cc1 (stereo unspecified)	2%	3%	-0.4%	·
CC(C)(C)NC(=O)CSc1ncnc2c1cnn2-c1ccccc1	4%	-1%	-0.1%	·
CCN(CC)CCCNc1nc2ccccc2[nH]1	-1%	-21%	-1.1%	8
O=C(NC(N1CCOCC1)C(Cl)(Cl)Cl)c1ccccc1Cl (stereo unspecified)	0%	-15%	0.2%	-5
O=C(O)c1c2c(nc3ccccc13)/C(=C/c1c(F)cccc1F)CCC2	-27%	?	?	·
COc1ccc(NC(=O)Nc2ccc3c(c2)OCO3)c(C)c1	-37%	36%	-0.2%	·
CCCCCNC(=O)CCc1ccccc1	-19%	-1%	6.1%	1
CN(C)C(CNC(=O)c1ccc(Cl)c(S(=O)(=O)N2CCCCCC2)c1)c1ccccc1 (stereo unspecified)	·	12%	-0.1%	·
COc1cc(OC)cc(-c2cc3nc(C)c(CCC(=O)Nc4nc(C)cs4)c(C)n3n2)c1	19%	9%	-1.7%	1
Cc1cc(C(=O)COC(=O)[C@H](C)NC(=O)c2ccco2)c(C)n1Cc1ccco1	-2%	-3%	-1.0%	0
Cc1nnc(SCC(=O)Nc2c(Cl)cccc2Cl)n(N)c1=O	·	-13%	-0.1%	·
CC(C)Nc1nnc(SC(C)C(=O)Nc2ccc(Cl)cn2)s1 (stereo unspecified)	3%	4%	-7.1%	15
CCOC(=O)c1ccc(NC(=O)c2nccnc2C(=O)O)cc1	0%	-4%	0.1%	-6
C=CCOc1ccc(CN(C)C(=O)c2ccc(CNS(=O)(=O)c3ccc(C)c(C)c3)cc2)cc1	·	3%	-1.3%	·
CC1COc2ccccc2N1S(=O)(=O)c1ccc(Cl)cc1 (stereo unspecified)	5%	0%	-5.9%	-3
Cc1ccc(S(=O)(=O)NCc2ccccn2)c(C)c1	1%	-5%	7.2%	·
O=C(COc1ccc2ccccc2c1)Nc1nnc(-c2ccco2)s1	-7%	5%	-0.3%	0
Fc1ccccc1-c1nc(NC2CCCC2)c2ccccc2n1	15%	-3%	2.1%	·
O=C1CCC(=O)N1CNc1ccc(Oc2ccccc2)cc1	-11%	-1%	1.9%	1
CC(=O)c1ccc(OCc2cc([N+](=O)[O-])cc3c2OCOC3)cc1	-26%	25%	-2.1%	7
CCOC(=O)Nc1ccc(Oc2ccccc2)cc1	-47%	-8%	1.5%	-2
COc1ccc(Nc2nc3c(C)cccn3c(=O)c2C=NCc2ccccc2)cc1	-10%	0%	-0.8%	0
COc1cc(OC)cc(-c2nc3nc(C)c(CCC(=O)NCC(OC)OC)c(C)n3n2)c1	-2%	2%	-2.4%	-1
Brc1ccc(CSc2ccc(-c3ccco3)nn2)cc1	-21%	-14%	4.2%	0
O=C(NCCN1CCN(C(=O)c2ccc([N+](=O)[O-])cc2)CC1)C(=O)Nc1ccc(F)cc1	0%	1%	-0.8%	·
COCCOC(=O)c1[nH]c2c(c1C)C(=O)CC(c1ccccc1)C2 (stereo unspecified)	14%	-5%	0.4%	3
CCOc1ccc(NC(=O)C2CCC(CNc3c(N4CCC(C)CC4)c(=O)c3=O)CC2)cc1 (stereo unspecified)	1%	36%	-4.1%	-6
CC(=O)c1c(C)n(-c2ccccc2)c2ccc(OCC(N)=O)cc12	-14%	7%	-0.6%	0
CCNC(=S)Nc1ccc2ncoc2c1	-7%	10%	2.2%	6
CCOC(=O)CSc1nnc(Cc2ccccc2)n1-c1cccc(Cl)c1	-2%	14%	3.7%	0
